gsp antag – antagonists of gsp mutant (McCune-Albright syndrome). AID 624288. Potency, µM (top dose mostly 76.9 µM), inactives show at the highest dose activity change, negative = inhibition, most hits filed as inhibitors. gsp-mutant cells, cAMP HTRF, 30 min; control for the full effect not named in the record. hit rate 0.4% among 340,000; active = falling curve of any shape with a large fitted effect; inconclusive = falling curve, mostly with a smaller effect; inactive = flat or rising curve; cell line not stated here;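 further: intracellular cAMP measured with PDE inhibitor Ro 20-1724 present during compound exposure; potency means the concentration at half of the fitted maximal effect; on the % scale 0 is the no-effect control and ±100 the full control effect; nearly all actives have a fitted effect of over 65% in size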
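Cells, 2000/well, grown 16–24 h in DMEM 10% FBS with 0.5 mg/ml G418, then compounds plus […] (300 uM addition stock), 30 min at 37C. cAMP read by HTRF (cAMP-d2 and anti-cAMP antibody-K in lysis buffer) after 30 min RT.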
ClpP mod – qHTS Assay for Activators of ClpP | AID 651965, 2013 | hit rate 1.9% among 340,000 | purified B. subtilis ClpP, FRET peptide cleavage, 20 min | ATP-dependent Clp protease proteolytic subunit (Bacillus subtilis (strain 168)), P80244 | Potency, µM (series often up to 57.5 µM), without a hit: at the top dose activity change, negative = active; active = well fitted falling curve with a large enough effect; inconclusive = small, poorly fitted or top-dose-only effect; inactive = no such curve, though single readings can be large or run the other way; further: potency means the concentration at half of the fitted maximal effect; the source files actives as falling curves though it sought activators and does not explain the sign; nearly all actives have a fitted effect of over 65% in size; many hits overshoot -100%
Target sequence (P80244 whole entry, looked up): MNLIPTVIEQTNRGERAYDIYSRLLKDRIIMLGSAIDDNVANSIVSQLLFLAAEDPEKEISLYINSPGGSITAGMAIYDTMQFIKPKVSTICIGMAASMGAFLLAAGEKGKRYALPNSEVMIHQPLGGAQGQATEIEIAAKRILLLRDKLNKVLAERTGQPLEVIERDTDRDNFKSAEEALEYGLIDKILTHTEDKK
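FRET quenching reversal measured ClpP activation: 10 microg/mL B. subtilis ClpP at pH 8 with the FRET-FV decapeptide, read at 430 nm after 320 nm excitation. The 20-min minus 0-min signal was scaled between DMSO/no-enzyme wells and ADEP (5.8 microM final).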
Sfp inh – blocks B. subtilis Sfp PPTase activity; Q9F4F7; Potency, µM, inactives show max response, negative = inhibition, usual class: inhibitors; hit rate 3.5% among 310,000; Biochemical Sfp PPTase activity, qHTS; active means well fitted inhibition curve with a large enough effect; inconclusive means small, poorly fitted or top-dose-only effect, or another doubt; inactive means no such curve, though single readings can be large or run the other way;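 further: the enzyme is Sfp with the accession as filed and its product quenches rhodamine fluorescence; potency means the concentration at half of the fitted maximal effect; 0% = enzyme reaction without inhibitor and -100% = no enzyme wells; top concentration of the series not given in the record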
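After 15 min at room temperature with compound, 15 nM Sfp received 5 uM rhodamine-CoA plus 12.5 uM BHQ-2-ybbR (50 mM Hepes pH 7.6, 10 mM MgCl2). Rate came from the fluorescence difference over 30 min, ex 525/em 598 nm.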
TRPV1 PAM – potentiators of human vanilloid receptor 1 (TRPV1); Q8NER1; TRPV1-expressing cells, Fluo-8 calcium influx, capsaicin EC20 potentiation; host cell line not named in the record; control for the full effect not named in the record; potentiation, % at 8.33 µM; hit rate 0.02% among 320,000; AID 540277; active means potentiation above 80%; inconclusive means 30% to 80%; inactive means below 30%; further: 0% is about no effect
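Cells expressing TRPV1 were dye-loaded with Fluo-8 and read kinetically: 10 s baseline, 3 min after compound (agonist portion), then 2 min after EC20 capsaicin (allosteric enhancer portion). Calcium-bound dye fluorescence at 480/520 nm.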
TRPML1 blocker – human mucolipin-1 channel inhibition; activity change, negative = inhibition, % (concentration not given with the values); TRPML1-inducible cells, Ca2+ dye fluorescence, FDSS; active compounds read low; inhibition of EC80 agonist-evoked calcium signal; Q9GZU1; hit rate 0.02% among 390,000; AID 624415; in the data active means activity change below about -50%; inconclusive means about -30% to -50%; inactive means above about -30%;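 further: stimulus is agonist 54-4 at its EC80 concentration; on the % scale 0 is the no-effect control and ±100 the full control effect; the text of the record puts the active cut at -80%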
Target sequence (Q9GZU1 whole entry, looked up): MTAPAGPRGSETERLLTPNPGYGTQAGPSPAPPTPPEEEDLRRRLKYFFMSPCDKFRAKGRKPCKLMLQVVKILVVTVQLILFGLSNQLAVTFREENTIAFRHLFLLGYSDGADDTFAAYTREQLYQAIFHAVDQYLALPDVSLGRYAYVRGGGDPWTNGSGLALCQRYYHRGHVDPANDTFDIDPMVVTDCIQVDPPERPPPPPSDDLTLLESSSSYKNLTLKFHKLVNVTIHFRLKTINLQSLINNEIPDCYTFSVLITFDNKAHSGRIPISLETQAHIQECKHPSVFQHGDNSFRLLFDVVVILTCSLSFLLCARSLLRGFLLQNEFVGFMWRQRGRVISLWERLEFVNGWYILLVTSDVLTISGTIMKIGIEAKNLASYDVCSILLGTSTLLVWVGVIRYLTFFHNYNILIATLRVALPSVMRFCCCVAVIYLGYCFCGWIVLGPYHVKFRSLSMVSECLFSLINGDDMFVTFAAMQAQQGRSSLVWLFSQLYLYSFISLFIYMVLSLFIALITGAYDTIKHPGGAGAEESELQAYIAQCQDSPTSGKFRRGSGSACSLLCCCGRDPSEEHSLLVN
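Tet-induced TRPML1-DL cells loaded with Ca8 no-wash calcium dye were read kinetically on FDSS. Compound addition was followed by EC80 agonist 54-4 (4 uM final); inhibition was read over 110 s.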
gsp ag – activates gsp, the McCune-Albright syndrome mutation | gsp mutant cells, cAMP HTRF, 30 min; control for the full effect not named in the record | Potency, µM (doses to about 76.9 µM), for the others: at the top dose activation (cAMP increase), actives largely listed as activators | hit rate 0.13% among 340,000; active = well fitted activation curve with a large enough effect; inconclusive = small, poorly fitted or top-dose-only effect, or another doubt; inactive = no such curve, though single readings can be large or run the other way; cell line not stated here;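 further: phosphodiesterase inhibitor Ro 20-1724 added with compounds to block cAMP breakdown; potency means the concentration at half of the fitted maximal effect; nearly all actives have a fitted effect of over 60% in size; about a fifth of the inactives were tested at one dose only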
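Cells in DMEM/10% FBS with G418 were pretreated with compounds in DMSO plus […] (300 uM stock) for 30 min at 37C. cAMP was measured by HTRF (cAMP-d2 plus anti-cAMP antibody-K) after 30 min at room temperature.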
Menin-MLL FL inh – displaces fluorescein MLL peptide from human menin | Fluorescence polarization, fluorescein-MLL peptide displacement from menin | FP activity change, % at 61.4 µM | 290,000 tested, under 10 active; inconclusive = falling polarisation curve, or a change in total fluorescence; inactive = total fluorescence flat and polarisation flat or rising; no compound was filed as active; the % refers to the polarisation; negative = inhibition;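 further: % of control where 0% means no effect; inhibitors lower the polarisation; unlabelled MLL peptide was the positive control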
* marks the source's active call; other numbers are inactive results; [ ] = remark or other dose.

How did CC1CCCN(S(=O)(=O)c2ccc(C(=O)Nc3nnc(-c4ccccn4)o3)cc2)C1 (configuration not stated) do in these assays?
gsp antag: -19%; ClpP mod: -2.4%; Sfp inh: 12%; TRPV1 PAM: -4; TRPML1 blocker: 19; gsp ag: 16%; Menin-MLL FL inh: -0.9

How did CCOC(=O)N1CCN(C(=O)c2cccc(OC)c2OC)CC1 do in these assays?
gsp antag: 11%; ClpP mod: -1.4%; Sfp inh: 5%; TRPV1 PAM: 2; TRPML1 blocker: 46; gsp ag: -4%; Menin-MLL FL inh: 2.6

Results for CC(=O)c1cccc(N2C(=NC(=O)C(C)C)SC3CS(=O)(=O)CC32)c1 (configuration not stated) ?
gsp antag: 3%; ClpP mod: -3.0%; Sfp inh: 19%; TRPV1 PAM: -7; TRPML1 blocker: 2; gsp ag: 1%; Menin-MLL FL inh: -2.1

How did COc1cccc(C2C(C(=O)c3cc4ccccc4o3)=C(O)C(=O)N2CCN(C)C)c1OC (configuration not stated) do in these assays?
gsp antag: 17%; ClpP mod: -7.1%; TRPML1 blocker: 2; gsp ag: inconclusive

Results for Cc1ccc(-n2nnnc2SCC(N)=O)c(C)c1 ?
gsp antag: 9%; ClpP mod: 1.0%; Sfp inh: 3%; TRPV1 PAM: 12; TRPML1 blocker: 4; gsp ag: 7%; Menin-MLL FL inh: 1.5

What do the screens show for `CC(O)CNc1nc2c(c(=O)n(Cc3ccc(Cl)c(Cl)c3)c(=O)n2C)n1C` (configuration not stated)?
gsp antag: -9%; ClpP mod: -5.1%; Sfp inh: 1%; TRPV1 PAM: -5; TRPML1 blocker: inconclusive; gsp ag: 4%; Menin-MLL FL inh: 2.1

How did COC(=O)C1(Cc2cc(-c3cccnc3)no2)CCN(C(=O)OC(C)(C)C)CC1 do in these assays?
gsp antag: -3%; ClpP mod: 2.7%; Sfp inh: 7%; TRPV1 PAM: -5; TRPML1 blocker: -11; gsp ag: 11%; Menin-MLL FL inh: -1.1

How did O=C1C=C(NC2=CC3OC(c4ccccc4)OCC3OC2=O)CCC1 (configuration not stated) do in these assays?
gsp antag: -15%; ClpP mod: 1.1%; Sfp inh: -39%; TRPV1 PAM: 2; TRPML1 blocker: -28; gsp ag: -12%; Menin-MLL FL inh: 0.4

What do the screens show for `Cc1cccc(C)c1NC(=O)C(=O)NCc1ccccn1`?
gsp antag: -4%; ClpP mod: -0.2%; Sfp inh: 7%; TRPV1 PAM: 1; TRPML1 blocker: -16; gsp ag: -16%; Menin-MLL FL inh: 8.3

Results for CC(C)c1nc(CNC(=O)CCc2nnc(-c3ccsc3)o2)cs1 ?
Sfp inh: 21%; TRPV1 PAM: 5; TRPML1 blocker: 16; gsp ag: 3%[15.4 µM]; Menin-MLL FL inh: 3.0

How did Cc1ccc(S(=O)(=O)NC(C)C(=O)NC2CC2)cc1 (configuration not stated) do in these assays?
gsp antag: 7%; ClpP mod: -0.4%; Sfp inh: -3%; TRPV1 PAM: -5; TRPML1 blocker: 8; gsp ag: -8%

What do the screens show for `COc1ccc(S(=O)(=O)Nc2ncccn2)cc1`?
gsp antag: -20%; ClpP mod: 0.1%; Sfp inh: 15%; TRPV1 PAM: 8; TRPML1 blocker: -6; gsp ag: -2%[15.4 µM]; Menin-MLL FL inh: 4.1

Results for O=C(Cn1cc(C(F)(F)F)ccc1=O)Nc1cc(S(=O)(=O)N2CCOCC2)ccc1Cl ?
gsp antag: -7%; ClpP mod: -6.9%; Sfp inh: 9%; TRPV1 PAM: -3; TRPML1 blocker: 19; gsp ag: inconclusive; Menin-MLL FL inh: 4.6

How did COc1cc([N+](=O)[O-])ccc1NC(=O)COC(=O)c1c[nH]c(=O)[nH]c1=O do in these assays?
gsp antag: 10%; ClpP mod: 0.2%; TRPML1 blocker: -18; gsp ag: 11%[15.4 µM]

Results for CCC(C)[C@H](NC(=O)N1CCCCCC1)C(=O)O (some centres not stated) ?
gsp antag: 7%; ClpP mod: -0.7%; Sfp inh: 18%; TRPV1 PAM: 6; TRPML1 blocker: 7; gsp ag: inconclusive; Menin-MLL FL inh: -0.5

How did COc1ccc2nc(NC(=O)c3ccccc3O)sc2c1 do in these assays?
gsp antag: -12%; ClpP mod: inconclusive; Sfp inh: 7%; TRPV1 PAM: -3; TRPML1 blocker: 1; gsp ag: 18%; Menin-MLL FL inh: -5.3

Results for O=C(CCNS(=O)(=O)c1ccc2c(c1)CCC(=O)N2)Nc1ccc2c(c1)OCCO2 ?
gsp antag: 7%; ClpP mod: 1.5%; Sfp inh: 8%; TRPV1 PAM: 0; TRPML1 blocker: 13; gsp ag: -41%[inhibitor]; Menin-MLL FL inh: -3.6

Results for CCSc1nc2c(cnn2-c2ccc(C)cc2)c(=O)[nH]1 ?
gsp antag: 4%; ClpP mod: -0.4%; Sfp inh: -3%; TRPV1 PAM: 5; TRPML1 blocker: -2; gsp ag: -14%; Menin-MLL FL inh: 3.2

Results for COC(=O)c1sc(NC(=O)C2CCCCC2C(=O)O)c(C(=O)OC)c1C (configuration not stated) ?
gsp antag: 9%; ClpP mod: -5.0%; Sfp inh: 30%; TRPV1 PAM: 0; TRPML1 blocker: 11; gsp ag: 14µM*; Menin-MLL FL inh: 2.8

Results for CCSc1nnc(NC(=O)CSc2nccn2-c2cccc(C)c2C)s1 ?
gsp antag: -4%; ClpP mod: -0.5%; Sfp inh: -9%; TRPV1 PAM: -6; TRPML1 blocker: -8; gsp ag: 5%; Menin-MLL FL inh: 0.1

What do the screens show for `COc1ccc(OC)c(C(=O)c2ccc(C(=O)O)cc2)c1`?
gsp antag: -15%; ClpP mod: -1.5%; Sfp inh: 8%; TRPV1 PAM: 3; TRPML1 blocker: -16; gsp ag: -26%; Menin-MLL FL inh: -0.4

Results for C#CCOCCOCCOCCNc1nc(N2CCN(C(=O)[C@H](C(C)C)n3cc(CCO)nn3)CC2)nc(N2CCN(C(=O)[C@H]([C@@H](C)CC)n3cc(CCCN=C(N)N)nn3)CC2)n1 ?
gsp antag: 14%; ClpP mod: 1.0%; Sfp inh: -27%; TRPV1 PAM: 5; TRPML1 blocker: 14; Menin-MLL FL inh: -4.9

Results for CCS(=O)c1ccccc1C(=O)OCC(=O)N1CCC(c2ccccc2)=N1 (configuration not stated) ?
gsp antag: -8%; ClpP mod: 0.9%; TRPML1 blocker: 19; gsp ag: 1%

What do the screens show for `Cc1nc2ccc(Oc3ccccc3)cc2s1`?
gsp antag: -2%; ClpP mod: 0.7%; TRPV1 PAM: 19; TRPML1 blocker: -1

What do the screens show for `CC(=O)Oc1ccc(C(=O)Cc2ccccn2)c(O)c1`?
gsp antag: 7%; ClpP mod: -7.3%; Sfp inh: inconclusive; TRPV1 PAM: -8; TRPML1 blocker: 2; gsp ag: 0%[15.4 µM]; Menin-MLL FL inh: -1.6

What do the screens show for `Cn1cnnc1SCC(=O)Nc1ccc(Cl)cn1`?
gsp antag: 9%; Sfp inh: 3%; TRPV1 PAM: 0; TRPML1 blocker: -8; gsp ag: -62%[inhibitor]; Menin-MLL FL inh: 0.2

Results for Cc1nc(-c2cccc(NC(=O)c3ccco3)c2)cs1 ?
gsp antag: -8%; ClpP mod: 0.5%; Sfp inh: 6%; TRPV1 PAM: -8; TRPML1 blocker: 11; gsp ag: -35%[inhibitor]

How did COc1ccc(O)c(C(=O)c2cnn(C(=O)c3cccc(S(=O)(=O)N4CCOCC4)c3)c2)c1 do in these assays?
gsp antag: -14%; ClpP mod: 0.0%; Sfp inh: 20%; TRPV1 PAM: -9; TRPML1 blocker: -30; gsp ag: 18%[15.4 µM]; Menin-MLL FL inh: 5.0

How did Cc1cc(Cl)ccc1-n1c(-c2cccnc2)n[nH]c1=S do in these assays?
gsp antag: -1%; ClpP mod: -4.7%; Sfp inh: 18µM*; TRPML1 blocker: 4; gsp ag: -71%[inhibitor]; Menin-MLL FL inh: 3.5

How did CCn1c(SCC(=O)Nc2cccc(C)c2)nc2c(c1=O)SC(C)C2 (configuration not stated) do in these assays?
gsp antag: -13%; ClpP mod: 0.8%; Sfp inh: 12%; TRPV1 PAM: -7; TRPML1 blocker: 20; gsp ag: -102%[inhibitor]; Menin-MLL FL inh: 2.4

Results for CCN(CC)S(=O)(=O)c1ccc2c3c(cccc13)C(=O)S2 ?
gsp antag: -26%; ClpP mod: -1.0%; Sfp inh: -5%; TRPV1 PAM: -4; TRPML1 blocker: 15; gsp ag: -2%; Menin-MLL FL inh: -1.6

What do the screens show for `COc1ccccc1CNC(=O)COC(=O)c1cc([N+](=O)[O-])ccc1N1CCOCC1`?
gsp antag: 4%; ClpP mod: 2.7%; Sfp inh: 12%; TRPV1 PAM: 7; TRPML1 blocker: 8; gsp ag: -27%

Results for O=C(NCCc1ccccc1)/C(=C\c1ccccc1)NC(=O)c1ccco1 ?
gsp antag: 0%; ClpP mod: -1.0%; Sfp inh: 1%; TRPV1 PAM: inconclusive; TRPML1 blocker: -3; gsp ag: -24%; Menin-MLL FL inh: 0.9

What do the screens show for `O=C(COC(=O)/C=C/c1ccc(OC(F)F)cc1)Nc1ccc(S(=O)(=O)N2CCCC2)cc1`?
gsp antag: -2%; ClpP mod: -2.3%; Sfp inh: 12%; TRPV1 PAM: 12; TRPML1 blocker: -10; gsp ag: -37%[inhibitor]; Menin-MLL FL inh: 4.6

Reprinted at random: 2 compounds from above, in no set order.
Results for CCN(CC)S(=O)(=O)c1ccc2c3c(cccc13)C(=O)S2 ?
gsp antag: -26%; ClpP mod: -1.0%; Sfp inh: -5%; TRPV1 PAM: -4; TRPML1 blocker: 15; gsp ag: -2%; Menin-MLL FL inh: -1.6

What do the screens show for `COc1ccccc1CNC(=O)COC(=O)c1cc([N+](=O)[O-])ccc1N1CCOCC1`?
gsp antag: 4%; ClpP mod: 2.7%; Sfp inh: 12%; TRPV1 PAM: 7; TRPML1 blocker: 8; gsp ag: -27%

High-throughput results from PubChem BioAssay.
